From PubChem BioAssay
StopGo RLuc – Primary qHTS Assay for Foot and Mouth Disease Virus Antivirals against NCGC Sytravon and CBC Compound Libraries: Renilla Luciferase Signal; HEK cells with a luciferase reporter of 2A StopGo recoding; Potency, µM (series often up to 57.5 µM), for inactives: top-dose signal change, negative = less light; hit rate 0.32% among 120,000; active means well fitted falling curve with a large enough effect; inconclusive means small, poorly fitted or top-dose-only effect; inactive means no such curve, though single readings can be large or run the other way; note: nearly all actives have a fitted effect of over 55% in size; overnight with compound
StopGo FLuc – Primary qHTS Assay for Foot and Mouth Disease Virus Antivirals against NCGC Sytravon and CBC Compound Libraries: Firefly Luciferase Signal. hit rate 0.23% among 120,000. HEK cells with a luciferase reporter of 2A StopGo recoding. Potency, µM (top dose mostly 57.5 µM), without a hit: at the top dose signal change, negative = less light. AID 1745856, 2022; active = well fitted falling curve with a large enough effect; inconclusive = small, poorly fitted or top-dose-only effect; inactive = no such curve, though single readings can be large or run the other way; note: nearly all actives have a fitted effect of over 60% in size; overnight with compound
* marks the source's active call; other numbers are inactive results; ? = inconclusive; [ ] = another dose, or the depositor's remark. % is set by controls: 0 for no effect and ±100 for the full control effect; potency is the fitted concentration of half-maximal effect.

SMILES	StopGo RLuc	StopGo FLuc
COc1c(C2CC(=O)Nc3c2ncn3-c2cccc(Cl)c2)cc2c(c1OC)OCO2 (stereo not given)	39%[activator]	13%
C=CCNCc1ccc(OCC)c(OCC)c1	-19%	0%
COc1cccc(F)c1-c1nc(C)c(C(=O)Nc2ccc3c(c2)OCO3)s1	15%	51%[activator]
CCCCCn1c(NCCO)nc2c1c(=O)[nH]c(=O)n2C	20%	24%
COc1ccc(CCNC(=O)Cn2c(=O)c3cccn3c3ccc(F)cc32)cc1OC	-10%	?
Cc1ccc(Cl)cc1NC(=O)N(Cc1ccc2c(c1)OCO2)C1CCN(Cc2ccccc2)CC1	2%	-25%
Cc1cc(C)cc(NC(=O)Cc2nc(-c3cccs3)oc2C)c1	-3%	6%
COc1ccc(/C=N/OCc2cc(Cl)c3c(c2)OCO3)cc1OC	-5%[1.06 µM]	0%
CCCOc1ccc(CNC2CC2)cc1	7%	5%
Cc1ccccc1CN1c2ccccc2-c2nc(SCC(=O)Nc3cc(F)ccc3F)ncc2S1(=O)=O	-8%	-9%
COc1ccc(CN2CCc3c(c(=O)n4ncc(C(=O)N5CCN(c6ccccc6F)CC5)c4n3C)C2)cc1	?	-27%
COc1ccc(C2c3c(-c4c(C)cc(C)cc4O)n[nH]c3C(=O)N2CCO)cc1OC (stereo not given)	-7%	14%
O=c1c2ccccc2c(-c2ccc(Cl)cc2)nn1-c1cc(N2CCOCC2)ccc1[N+](=O)[O-]	5%	-14%
CCCCCCn1nc(C(=O)Nc2ccc(OC)c(OC(F)F)c2)c2ccccc2c1=O	0%	6%
CC(C)C(C)(C#N)NC(=O)CCc1ccccc1 (stereo not given)	12%	9%
CCCOc1ccc(CNC(=O)C(CC)n2nc(C)c3sc4ccccc4c3c2=O)cc1 (stereo not given)	-10%	-28%
COc1cc(Nc2ncc3c(n2)CCN(Cc2cc(F)cc(F)c2)C3)cc(OC)c1	-12%	41%[activator]
CCOC(=O)c1sc(CC(=O)Nc2ccc(C)cc2)nc1C	30%	35%[activator]
COc1ccc(OC)c(NC(=O)CCn2nc(-c3ccccc3OC)c3c(C)cc(C)nc32)c1	4%	-11%
Cc1ccc(-c2csc(=Nc3ccccc3)n2CCCO)cc1	?	?
CCc1noc(CS(=O)(=O)Cc2cc(C)ccc2C)n1	-6%	-5%
Cc1cccc(NC(=O)C(C#N)=C2CCCC2)c1	22%	0%
COc1ccc2oc(=O)c(-c3cn4ccc(C)cc4n3)cc2c1	29%	109%[activator]
Cc1ccc(S(=O)(=O)/N=C(\N)Nc2nc(C)c3cc(C)ccc3n2)cc1	213%[activator]	97%[activator]
Cc1ccc2oc(-c3cccc(NC(=O)c4ccc([N+](=O)[O-])o4)c3C)nc2c1	?	?
Remaining list, next part:
SMILES	StopGo RLuc	StopGo FLuc
CCCCC(=O)Nc1ccc2oc(-c3ccc(OC)cc3)nc2c1	29%	0%
Cc1ccccc1OCc1ccc(-c2nc(C#N)c(N(C)C)o2)o1	-3%	2%
COc1ccc(C2CC(=O)c3cc(-c4nc(-c5cccc([N+](=O)[O-])c5)cs4)c(=O)n(-c4ccccc4)c3C2)cc1 (stereo not given)	1%	-9%
CC(C)Cn1nc(C(=O)Nc2ccc3nc(N4CCOCC4)sc3c2)c2ccccc2c1=O	-10%	4%
Cc1ccc2c(=O)c(C(=O)c3ccc(F)cc3)cn(CC(=O)NCCc3ccccc3)c2n1	-14%	-16%
COc1cccc(N2CC(NC(=O)COc3ccccc3F)CC2=O)c1 (stereo not given)	-11%	-22%
O=c1c2c3c(sc2n(Cc2cc(=O)n4ccccc4n2)c(=O)n1-c1ccc(Cl)cc1)CCC3	8%	1%
COc1ccccc1OCC(=O)NCC(c1ccc(Cl)cc1)N1CCOCC1 (stereo not given)	-8%	-16%
CCC(=O)Oc1ccc2c(=O)c(-c3nc4ccccc4s3)c(C)oc2c1	-1%	177%[activator]
Cc1onc(-c2ccccc2Cl)c1C(=O)Oc1ccc(Br)cc1	12%	-2%
Cc1ccc(-c2noc(CNC(=O)COc3cccc(C)c3)n2)cc1	-3%	-1%
O=C(CSc1nc(NC2CC2)c2ccccc2n1)NC1CC1	22%	21%
O=Cc1cccn1-c1ccccc1F	5%	0%
CCc1ccc2nc(N/C(N)=N/S(=O)(=O)c3ccc(C)cc3)nc(C)c2c1	37%[activator]	15%
Cc1cc(C(=O)CCl)c(C)[nH]1	-1%	0%
CCCc1noc(CN2CCC(c3nc4ccccc4s3)CC2)n1	-24%	9%
Cc1nn(C(=O)COc2ccccc2)c(C)c1Sc1ccccc1	-6%	16%
CCCCN1CCCCC1CNc1ccc2nnnn2n1 (stereo not given)	-9%	-14%
Cc1ccc(OCc2ccc(-c3nc(C#N)c(N4CCC(C(N)=O)CC4)o3)o2)cc1	9%	0%
O=C(CN1CCN(c2ccccc2)CC1)NC(=O)NCC(F)(F)F	-13%	-4%
CC1CCN(C(=O)CCc2nc3sc4c(c3c(=O)[nH]2)CCCCC4)CC1	-15%	-1%
N#Cc1nc(-c2ccco2)oc1N1CCN(c2ccccc2)CC1	37%[activator]	0%
COC(=O)C1=C(C)NC(=O)NC1c1ccc(C(=O)OC)cc1 (stereo not given)	-1%	5%
CC1(C(=O)NCc2ccccc2)Cn2c(ccc2-c2ccco2)C(=O)N1Cc1ccccc1F (stereo not given)	1%	-15%
Cc1cccc(C(=O)Nc2ccccc2-c2nc(-c3ccccc3)no2)c1	7%	15%
Continuation:
SMILES	StopGo RLuc	StopGo FLuc
COc1ccc(Cn2c(=O)c3oc4ccccc4c3n(Cc3cccc(C(F)(F)F)c3)c2=O)cc1	-1%	-17%
COc1ccc(N2CCCCS2(=O)=O)cc1S(=O)(=O)N(C)CCc1ccncc1	37%[activator]	-11%
Cc1ccc(C(c2sc3nc(-c4ccco4)nn3c2O)N2CCCCC2)cc1 (stereo not given)	8%	-7%
CC[N+](CC)(CC)CCOC(=O)C(C1CCCC1)C1CCCC1	-14%	-26%
CC1CCN(c2nc(-c3ccncc3)nc3ccccc23)CC1	-5%	6%
CCOc1ccc(S(=O)(=O)Nc2cccc(-c3ccc(OCC)nn3)c2)cc1	77%[activator]	?
CCOc1ccccc1NC(=O)c1ccc(F)c(S(=O)(=O)NCc2ccc3c(c2)OCO3)c1	187%[activator]	15%
CCc1ccc(NC(=O)CSc2nc(-c3ccccc3Cl)nc3c2Cc2c(CO)cnc(C)c2O3)cc1	-13%	-7%
CC(C)c1nnc2sc(-c3ccc4c(c3)OCO4)nn12	7%	0%
Cc1cccc(N(CC(O)Cn2c3ccccc3c3ccccc32)S(=O)(=O)c2ccc(F)cc2)c1 (stereo not given)	?	?
Cc1c(C(=O)Nc2ccc(S(=O)(=O)C(F)F)cc2)oc2ccccc12	?	59%[activator]
Cc1ccc2nc(N3CCN(C(=O)C4CC4)CC3)sc2c1	5%	102%[activator]
O=C(CCc1nc(-c2cccs2)no1)Nc1cccc([N+](=O)[O-])c1	-8%	-22%
O=C(COc1ccc(Cl)cc1)Nc1ccc2oc(-c3ccccc3F)nc2c1	-1%	82%[activator]
Cc1nc2nc(SCc3c(F)cccc3Cl)nn2c(C)c1Cc1ccccc1	70%[activator]	162%[activator]
N#Cc1cc(C(=O)c2cc(F)ccc2O)cn(C2CCCCC2)c1=O	62%[activator]	0%
CCCCC1CCC(C(=O)Oc2ccc(OC)cc2)CC1 (stereo not given)	-7%	-8%
COc1cc(CN(C(=O)c2ccccc2[N+](=O)[O-])c2ccccn2)cc(OC)c1OC	9%	-11%
CCOC(=O)/C(C#N)=C/c1ccc(-c2ccc(Br)cc2)o1	10%	9%
CC(C)C(N=C1NS(=O)(=O)c2ccccc21)C(=O)NCCc1ccco1 (stereo not given)	16%	21%
C=C(C)CN(CC)C(=O)c1ccsc1	1%	-2%
Cc1ccc(C(=O)COC(=O)C2CC3CCCC(C2)C32SCCS2)s1 (stereo not given)	-5%	27%
Cc1ccc(C(=O)C(OC(=O)c2ccc(N(C)C)cc2)c2ccccc2)cc1 (stereo not given)	-6%	-9%
Cc1nc2cc(NC(=O)COc3ccccc3C(C)(C)C)ccc2o1	?	57%[activator]
Nc1ccn([C@@H]2O[C@H](CO)[C@@H](O)C2(F)F)c(=O)n1	8%	14%

Gathered by group: the compounds so far containing bromine.
SMILES	StopGo RLuc	StopGo FLuc
Cc1onc(-c2ccccc2Cl)c1C(=O)Oc1ccc(Br)cc1	12%	-2%
CCOC(=O)/C(C#N)=C/c1ccc(-c2ccc(Br)cc2)o1	10%	9%

(further entries)
SMILES	StopGo RLuc	StopGo FLuc
O=C(Nc1ccc(SC(F)F)cc1)c1ccncc1	?	?
CC(C)C(Sc1nnc(-c2cccnc2)o1)C(=O)NCc1cccnc1 (stereo not given)	-5%	5%
Cc1ccccc1N1CCN(S(=O)(=O)c2nnc(NC(=O)c3ccc(C(C)C)cc3)s2)CC1	-10%	9%
CCn1c(NCCO)nc2c1c(=O)n(C)c(=O)n2C	13%	5%
COc1cccc(C(=O)NCCc2sc(-c3cccc(C)c3)nc2C)c1	17%	75%[activator]
Cc1nn(CC(=O)NC(C)(C)C)c(C)c1S(=O)(=O)N1CCCC(C(=O)N2CCN(C)CC2)C1 (stereo not given)	-9%	-6%
Cc1ccoc1C(=O)NCc1ccnc(OCC(F)(F)F)c1	10%	79%[activator]
CCS(=O)(=O)c1c(Nc2cc(C)ccc2C)sc(C(=O)c2ccccc2)c1N	43%[activator]	20%
CN(CC(=O)Nc1cccc(F)c1)C(=O)CCc1ncc(-c2ccccc2F)o1	12%	145%[activator]
Cc1cc(C)cc(NS(=O)(=O)c2ccc3[nH]cc(C(=O)N4CCCC4)c(=O)c3c2)c1	94%[activator]	-2%
COc1ccc(C(=O)COC(=O)C(C)Oc2ccc(F)cc2)cc1OC (stereo not given)	24%	58%[activator]
O=C(NCC(c1cccnc1)N1CCc2ccccc2C1)C(=O)Nc1cccc(Cl)c1 (stereo not given)	-12%	-3%
CCSc1nc(-c2ccc(OC)cc2)nc2c1Cc1c(CO)cnc(C)c1O2	-7%	-10%
Cc1ccc(OCc2nc3ccc(F)cc3[nH]2)cc1	2%	185%[activator]

5 entries from above, ordered by length of the SMILES, lowest first.
SMILES	StopGo RLuc	StopGo FLuc
CCn1c(NCCO)nc2c1c(=O)n(C)c(=O)n2C	13%	5%
CC(C)C(Sc1nnc(-c2cccnc2)o1)C(=O)NCc1cccnc1 (stereo not given)	-5%	5%
CCS(=O)(=O)c1c(Nc2cc(C)ccc2C)sc(C(=O)c2ccccc2)c1N	43%[activator]	20%
O=C(NCC(c1cccnc1)N1CCc2ccccc2C1)C(=O)Nc1cccc(Cl)c1 (stereo not given)	-12%	-3%
Cc1cc(C)cc(NS(=O)(=O)c2ccc3[nH]cc(C(=O)N4CCCC4)c(=O)c3c2)c1	94%[activator]	-2%

Two of the compounds above, bar-delimited:
molecule | StopGo RLuc | StopGo FLuc
COc1ccc(C(=O)COC(=O)C(C)Oc2ccc(F)cc2)cc1OC (stereo not given) | 24% | 58%[activator]
Cc1cc(C)cc(NS(=O)(=O)c2ccc3[nH]cc(C(=O)N4CCCC4)c(=O)c3c2)c1 | 94%[activator] | -2%

Entries of single compounds, looked up by structure. Order of screens: StopGo RLuc | StopGo FLuc
Listed for CCS(=O)(=O)c1c(Nc2cc(C)ccc2C)sc(C(=O)c2ccccc2)c1N : 43%[activator] | 20%
Listed for Cc1ccc(OCc2nc3ccc(F)cc3[nH]2)cc1 : 2% | 185%[activator]
Listed for CCCCCn1c(NCCO)nc2c1c(=O)[nH]c(=O)n2C : 20% | 24%
Listed for Cc1nn(C(=O)COc2ccccc2)c(C)c1Sc1ccccc1 : -6% | 16%
Listed for COc1ccc(C2CC(=O)c3cc(-c4nc(-c5cccc([N+](=O)[O-])c5)cs4)c(=O)n(-c4ccccc4)c3C2)cc1 (stereo not given) : 1% | -9%
